Source: PubChem
PV pol inh: poliovirus RNA polymerase inhibition. P03300. poliovirus polymerase elongation, fluorescence polarization; hits give low values. % elongation, % (compound at 16.7 µg/mL). 0.66% of 150,000 active; in the data active = % elongation below about 90%; note: some results filed as inactive read as strong as hits
Target sequence (P03300 1749-2209 limits assumed): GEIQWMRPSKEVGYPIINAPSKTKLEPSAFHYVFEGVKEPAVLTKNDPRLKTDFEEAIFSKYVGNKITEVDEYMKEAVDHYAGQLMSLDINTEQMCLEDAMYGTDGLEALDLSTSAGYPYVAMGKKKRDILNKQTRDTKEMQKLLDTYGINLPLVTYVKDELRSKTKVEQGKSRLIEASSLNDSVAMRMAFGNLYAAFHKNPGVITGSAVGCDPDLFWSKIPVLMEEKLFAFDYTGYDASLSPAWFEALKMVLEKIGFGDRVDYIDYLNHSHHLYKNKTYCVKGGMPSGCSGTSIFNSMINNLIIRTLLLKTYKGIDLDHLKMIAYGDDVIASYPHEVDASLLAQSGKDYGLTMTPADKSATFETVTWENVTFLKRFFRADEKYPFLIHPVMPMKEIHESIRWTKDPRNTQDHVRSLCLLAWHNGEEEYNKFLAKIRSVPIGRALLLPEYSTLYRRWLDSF
PV pol inh intensity: recorded beside PV pol inh, whose call it bears; % elongation; measured here: total intensity read-out; formula for this scale not given here;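 total fluorescence in place of polarization; lower means less elongation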
Numbers without * were called inactive.

Each structure is followed by: PV pol inh	PV pol inh intensity
> COc1cc(CNCCSc2nnnn2C)ccc1OCc1ccc(Cl)cc1Cl
    103	105
> Cc1ccc(CNC(=O)c2ccc3c(=O)n(-c4ccccc4)c(=O)[nH]c3c2)cc1
    110	114
> Cc1cc(C)cc(NC(=O)CN2C(=O)c3ccccc3Sc3ncccc32)c1
    106	104
> CC1CCN(c2ncnc3c2c(-c2ccccc2)cn3-c2ccc(Br)cc2)CC1
    98	105
> COC(=O)c1sccc1S(=O)(=O)N(CC(=O)Nc1cccc(C)c1C)c1ccc(C)c(C)c1
    107	114
> Cc1oc2c(C)c3oc(=O)c(CCC(=O)N4CCCCC4)c(C)c3cc2c1C
    101	94
> O=C(CC(NCc1cccnc1)C(=O)O)Nc1ccc(F)cc1 (configuration not stated)
    106	104
> Cc1nnc(N2CCN(C(=O)NC(C)C)CC2)c2nn(-c3ccccc3)c(C)c12
    110	110
> COc1ccc(OC)c(NC(=O)c2c(NCc3ccc(C)o3)sc3c2CCCCC3)c1
    109	116
> Cc1ccc(Nc2c(-c3ccc(C)s3)nc3ccccn23)cc1
    110	113
> Cc1coc2cc3oc(=O)c(CCC(=O)N4CCCCC4)c(C)c3cc12
    110	111
> Cc1c(C(=O)N2CCCCC2)c(S(=O)(=O)NCc2ccc(N(C)C)cc2)c(C)n1C
    115	108
> Cc1cc(C)c(S(=O)(=O)NCC(c2cccs2)S(=O)(=O)c2ccccc2)c(C)c1 (configuration not stated)
    106	100
> COc1ccccc1N1CCN(S(=O)(=O)c2c(C)sc3ncn(CC(=O)NCCN(C)C)c(=O)c23)CC1
    102	107
> CCOc1ccc(OCC)c(NC(=O)c2nnn(CC(=O)Nc3cc(Cl)ccc3OC)c2N)c1
    112	113
> COc1ccc(N(Cc2cccs2)C(=O)c2ccco2)cc1
    110	110
> CSc1nc2c(sc3ccccc32)c(=O)n1Cc1ccc(C)cc1
    107	112
> COc1ccc(/C=C/C(=O)Nc2ccc(Cl)cc2Cl)cc1
    106	112
> COc1cc(OC)c(OC)cc1CNCCSc1nnnn1-c1ccccc1
    106	100
> Cc1nc2ccc(S(=O)(=O)N(CC(=O)Nc3cccc(Cl)c3)Cc3ccccc3)cc2s1
    105	107
> CCOC(=O)N1CCc2c(sc(NCc3ccc(OCC)cc3)c2C(=O)Nc2ccc(OC)cc2OC)C1
    101	82
> Cc1ccc(Cl)cc1NC(=O)c1nnn(Cc2ccccc2)c1N
    100	103
> COc1ccccc1NC(=O)n1ncc2c(C)cccc21
    110	114
> COc1cccc(CNC(=O)CSc2nc(=O)[nH]c3c2CCCC3)c1
    106	108
> Cc1ccc(NC(=O)c2c(NC(=O)c3ccccc3Cl)sc3c2CCC3)cc1
    103	106
> Cc1nn(CC(=O)NCc2ccc(N(C)C)cc2)c(=O)c2nn(-c3ccccc3)c(C)c12
    116	117
> CCCC(=O)NC1CC(=O)N(c2ccc3c(c2)OCCO3)C1 (configuration not stated)
    109	105
> COC(=O)c1cccc(Nc2c(-c3cc(Br)ccc3O)nc3nc[nH]n23)c1
    102	124
> COC(=O)CC1c2cc(OC)c(OC)cc2CCN1C(=O)Nc1ccc(C)cc1Cl (configuration not stated)
    111	106
> CCOC(=O)c1ccc(-c2ccc(/C=C(\C#N)C(=O)Nc3ccc(C)cc3OC)o2)cc1
    99	100
> Cc1cc(C)c2nc(NC(=O)c3ccc(S(=O)(=O)N4CCc5ccccc54)cc3)sc2c1
    105	112
> CN(C(=O)C1CCN(c2ncnc3c2nc2n3CCCCC2)CC1)c1ccccc1F
    112	108
> O=c1ccc2cc(S(=O)(=O)Nc3ccc(F)c(Cl)c3)ccc2[nH]1
    113	113
> CN(c1nnc(NC(=O)Nc2ccc(Br)cc2)s1)C1CCCCC1
    109	113
> O=C(Oc1ccccc1Cl)c1cc(-c2ccc3c(c2)OCCO3)on1
    100	99
> Cc1cc(C)cc(NC(=O)c2cc(S(=O)(=O)N3CCC(C)CC3)cn2C)c1
    104	107
> Cc1c(C(=O)Nc2ccccc2)sc2nc(-c3cc4cc(Cl)ccc4oc3=O)[nH]c(=O)c12
    104	107
> CN1CCN(C2(CNC(=O)c3ccc(C(C)(C)C)cc3)CCCCC2)CC1
    108	105
> CCC(C(=O)NCCc1cc(OC)ccc1OC)n1nc(C)c2sc3ccccc3c2c1=O (configuration not stated)
    109	113
> Cc1ccc(-n2c3nc(=O)[nH]c(=O)c-3cc3c(Cl)cccc32)cc1
    104	110
> CCOc1ccccc1NC(=O)C1CCN(S(=O)(=O)c2cccc3nonc23)CC1
    111	108
> COC(=O)C(CCSC)NC(=O)Cn1ncc2c([nH]c3ccccc32)c1=O (configuration not stated)
    108	112
> Cc1ccc(S(=O)(=O)c2nc(-c3ccco3)oc2SCc2ccc(F)cc2)cc1
    102	104
> Cc1cc(C)cc(NC(=O)CSc2oc(-c3cccs3)nc2S(=O)(=O)c2ccc(Br)cc2)c1
    111	114
> Cc1ccc(-n2nc(C(=O)Nc3ccc(Cl)cn3)c3c4ccccc4n(C)c3c2=O)cc1
    102	103
> CCOC(=O)CCn1nc(C)c2c(C)n(-c3ccccc3)nc2c1=O
    109	109
> CCCCCSc1nnc2c(n1)OC(CC)Nc1ccc(Br)cc1-2 (configuration not stated)
    106	116
> COc1ccc(OC)c(NC(=O)Cn2c(=O)n(-c3cccc(C)c3)c(=O)c3c2c2cc(C)ccc2n3C)c1
    106	108
> Cc1cc(C)cc(-n2ccn(CC(=O)NCCc3ccccc3)c(=O)c2=O)c1
    107	115
> CCCNC(=O)CCc1c(C)nc2nc(CNC(=O)c3ccccc3)nn2c1C
    108	108
> CC(=O)Nc1ccc(S(=O)(=O)N2CCN(c3ccccc3)CC2)cc1
    109	112
> Cc1ccc(OCCCCn2cnc3ccccc32)cc1
    109	108
> CCN(Cc1ccccc1)Cc1c(O)ccc2c(=O)c(-c3ccccc3Cl)coc12
    100	103
> COc1ccccc1CNC(=O)Cn1cc2c(n1)-c1c(oc(C(=O)N3CCOCC3)c1C)CC2
    115	114
> COc1ccc(C)cc1NC(=O)C1COc2ccccc2C1 (configuration not stated)
    106	113
> Cc1cc(Nc2ccc(Cl)cc2)n2cnnc2n1
    103	100
> Cc1ccc(-c2c(C(=O)N3CCN(c4cccc(C)c4C)CC3)oc(=O)c3ccccc23)cc1
    108	107
> CCOc1ccc(N2CC(NC(=O)c3ccc(Cl)cc3)CC2=O)cc1 (configuration not stated)
    111	109
> Cc1nc(-c2ccc(F)cc2)sc1CCNC(=O)C(=O)Nc1ccc2c(c1)OCO2
    111	109
> O=C(OCc1cc(=O)n2nc(-c3cccs3)sc2n1)c1ccc(Cl)cc1
    104	107

The list continues:
Each structure is followed by: PV pol inh	PV pol inh intensity
> Cc1ccc(-c2nnc3ccccc3c2C(=O)Nc2ccc(C)c(F)c2)cc1
    101	106
> Cc1ccc(-c2c(C(=O)Nc3ccccc3F)oc(=O)c3ccccc23)cc1
    103	109
> CCOc1ccc(CNS(=O)(=O)c2ccc(-c3coc(C)n3)cc2)cc1OC
    109	105
> COC(=O)c1cc2sccc2n1Cc1c(C)cc(C)cc1C
    110	113
> COc1ccccc1NC(=O)c1sc2ncn(Cc3ccccc3Cl)c(=O)c2c1C
    102	94
> COCCNc1ccc(-c2nc(-c3ccncc3)no2)cc1[N+](=O)[O-]
    110	112
> COc1ccccc1CNC(=O)c1cc2cc(C)ccc2n1C
    110	110
> Cc1nc(SCC(=O)Nc2ccccc2F)[nH]c(=O)c1Cc1ccccc1
    109	107
> Cc1cc(C)cc(OCC(=O)Nc2ccc(-c3nc4ccccc4o3)cc2)c1
    107	111
> Cc1cc(C)cc(C(=O)N2CC(=O)Nc3ccc(C)cc3C2c2ccccc2)c1 (configuration not stated)
    106	113
> CCc1ccc(NC(=O)CSc2ncc(S(=O)(=O)c3cc(C)ccc3C)c(=O)[nH]2)cc1
    103	106
> O=C(NCc1ccc(F)cc1)c1cc(Sc2ccc(F)cc2F)nc2ccccc12
    111	117
> Cc1ccc2c(c1)c1c(c(=O)n(Cc3ccccc3)c(=O)n1Cc1cccc(C(F)(F)F)c1)n2C
    113	104
> COc1ccc(NC(=O)CN2C(=O)c3cccnc3Sc3ccccc32)cc1OC
    111	115
> Cc1ccccc1NC(=O)CSc1ccc(-c2cccs2)nn1
    109	98

Looked up above.
In PV pol inh, CCc1ccc(NC(=O)CSc2ncc(S(=O)(=O)c3cc(C)ccc3C)c(=O)[nH]2)cc1 has 103
In PV pol inh, COCCNc1ccc(-c2nc(-c3ccncc3)no2)cc1[N+](=O)[O-] has 110

Quoted from the listing (14 entries):
Each structure is followed by: PV pol inh	PV pol inh intensity
> Cc1ccc(-c2c(C(=O)Nc3ccccc3F)oc(=O)c3ccccc23)cc1
    103	109
> CCOc1ccc(CNS(=O)(=O)c2ccc(-c3coc(C)n3)cc2)cc1OC
    109	105
> COC(=O)c1cc2sccc2n1Cc1c(C)cc(C)cc1C
    110	113
> COc1ccccc1NC(=O)c1sc2ncn(Cc3ccccc3Cl)c(=O)c2c1C
    102	94
> COCCNc1ccc(-c2nc(-c3ccncc3)no2)cc1[N+](=O)[O-]
    110	112
> COc1ccccc1CNC(=O)c1cc2cc(C)ccc2n1C
    110	110
> Cc1nc(SCC(=O)Nc2ccccc2F)[nH]c(=O)c1Cc1ccccc1
    109	107
> Cc1cc(C)cc(OCC(=O)Nc2ccc(-c3nc4ccccc4o3)cc2)c1
    107	111
> Cc1cc(C)cc(C(=O)N2CC(=O)Nc3ccc(C)cc3C2c2ccccc2)c1 (configuration not stated)
    106	113
> CCc1ccc(NC(=O)CSc2ncc(S(=O)(=O)c3cc(C)ccc3C)c(=O)[nH]2)cc1
    103	106
> O=C(NCc1ccc(F)cc1)c1cc(Sc2ccc(F)cc2F)nc2ccccc12
    111	117
> Cc1ccc2c(c1)c1c(c(=O)n(Cc3ccccc3)c(=O)n1Cc1cccc(C(F)(F)F)c1)n2C
    113	104
> COc1ccc(NC(=O)CN2C(=O)c3cccnc3Sc3ccccc32)cc1OC
    111	115
> Cc1ccccc1NC(=O)CSc1ccc(-c2cccs2)nn1
    109	98

(cont.)
Each structure is followed by: PV pol inh	PV pol inh intensity
> O=C(CCC1N=C2c3ccccc3N=C(SCc3ccccc3F)N2C1=O)NCc1ccccc1 (configuration not stated)
    91	72
> CCc1cnc2c(c1SCC(=O)N1CCC(C)CC1)c(=O)n(C)c(=O)n2C
    111	115
> COc1cc(NC(=O)CSc2nc3nc(C)c(Cc4ccccc4Cl)c(C)n3n2)cc(OC)c1
    104	103
> COc1ccc(NC(=O)CCn2nc(-c3ccccc3OC)c3c(C)cc(C)nc32)cc1
    107	109
> COC(=O)c1ccc2c(=O)n(CCCCCC(=O)NCc3ccccc3)c(=O)[nH]c2c1
    110	113
> CCOc1cc(C(=O)Nc2ccc(-c3cn4cccnc4n3)cc2)cc(OCC)c1OCC
    101	104
> Cc1ccc(C)c(Nc2nc3c(S(=O)(=O)c4ccc(Br)cc4)nnn3c3ccsc23)c1
    105	111
> Cc1cc(F)ccc1NC(=O)CCS(=O)(=O)c1ccc2c(c1)NC(=O)CO2
    112	113
> CCOC(=O)c1c(C)[nH]c(C)c1S(=O)(=O)N1CCCC(C(=O)NCc2cccc(OC)c2)C1 (configuration not stated)
    111	103
> CCC(C(=O)OCc1cc(=O)n2nc(CCOC)sc2n1)c1ccccc1 (configuration not stated)
    108	106
> CCn1cc(S(=O)(=O)c2cccc(Cl)c2)c(=O)c2cc(F)c(N3CCN(c4ccccc4)CC3)cc21
    112	116
> CC(Oc1ccc(F)cc1)C(=O)N1CCC(c2nc3ccccc3s2)CC1 (configuration not stated)
    106	107
> CCCc1nc(SC)ncc1C(=O)Nc1ccc(Cl)cc1C(=O)c1ccccc1
    111	115
> COc1cc2c(=O)n(Cc3ccccc3Cl)c(=O)n(CC(=O)Nc3ccc(C)c(C)c3)c2cc1OC
    111	107
> Cc1cc(C)cc(NC(=O)C2CCCN(c3nnc(C)c4c(C)n(-c5ccccc5)nc34)C2)c1 (configuration not stated)
    105	99
> Cn1c(=O)oc2cc(S(=O)(=O)N3CCC(C(=O)NCc4ccccc4Cl)CC3)ccc21
    108	106
> CCc1ccccc1NC(=O)c1cc(S(=O)(=O)NCCc2ccc(OC)c(OC)c2)ccc1F
    117	109
> CC(C)(C)OC(=O)N1CCC(c2c(C(=O)N3CCN(c4ccccc4F)CC3)cnn2C(C)(C)C)CC1
    102	107
> CC(C)OC(=O)c1ccc(NC(=O)CSc2nc(-c3cccs3)cc(C(F)(F)F)n2)cc1
    102	105
> Cc1cn2c(=O)c(S(=O)(=O)NCCc3ccc(Cl)cc3)c(C)nc2s1
    108	114
> COc1cc(OC)cc(C(=O)Nc2ccc(S(=O)(=O)Nc3cc(C)nc(C)n3)cc2)c1
    109	110
> COC(=O)C1=C(c2ccccc2)c2ccccc2S(=O)(=O)N1CC(=O)Nc1ccc(F)c(F)c1
    106	106
> CCN(CC)S(=O)(=O)c1ccc2c(c1)c(=O)c(C(=O)N1CCN(c3cccc(C)c3)C(C)C1)cn2C (configuration not stated)
    108	107
> COc1ccc(-c2nc(CS(=O)(=O)CC(=O)NCc3ccccc3Br)c(C)o2)cc1
    111	112
> Cc1ccccc1Cn1nnc2sc3c(c2c1=O)CCCC3
    109	110
> COc1ccc(-n2nc(C(=O)Nc3ccc(Cl)cn3)c3c4ccccc4n(C)c3c2=O)cc1Cl
    106	102
> COC(=O)c1ccc(C(=O)OC)c(NC(=O)c2c(-c3ccccc3)c(-c3ccccc3)nn(C)c2=O)c1
    110	112

An excerpt. The share of hits here may be higher or lower than overall.
